# High-throughput results from PubChem BioAssay.
# Ba CapD inh = CapD enzyme inhibition. actives 0.23% (n = 140,000). z-score (test concentration not listed). purified CapD enzyme, fluorescence intensity read-out; active compounds read low; some hits fall short of the stated cut. AID 492967;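 active = z-score under -4 in either of two replicates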;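 note: stock transfer was 100 nL into about 40 µL; score is relative to mean and spread of the plate; one replicate is shown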
# AID504770 = growth inhibitors of E. coli YBA685 in a screen for V. cholerae RctB (chromosome II replication) inhibitors; actives 0.27% (n = 130,000); AID 504770; E. coli YBA685 rctB-dependent plasmid, OD600 growth, 3 h; active compounds read low; z-score (no concentration beside the values);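 active = z-score under -2 on both plates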;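 note: wells of about 30 µL received 100 nL stock; score is relative to mean and SD of the test wells; the first replicate is given; strong numbers were not always called active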
# * hit, by the source's call; i = inactive; . = no result given; & = joins results of further samples.
canonical_smiles | Ba CapD inh | AID504770
CCN(c1cccc(C)c1)c1ncnc2nc[nH]c12 | -0.07 | -0.05
Cc1cc(=O)c2c(ccc3c[nH][nH]c32)n1 | 3.5 | .
CCCC(=O)Nc1nc(-c2ccc(Cl)s2)cs1 | i | 1.4
COc1ccccc1S(=O)(=O)CC(O)COc1ccc(F)cc1Cl (configuration not stated) | 0.24 | .
Nc1nc(Cn2nnc(-c3ccc4c(c3)OCO4)n2)nc(N2CCCCC2)n1 | 0.025 | .
O=C(COc1ccccc1O)NCc1ccccc1Cl | 0.11 | 2.3
Cc1ccc(OCCOc2ccc(/C=C3/C(=N)N4C(c5ccccc5)=CSC4=NC3=O)cc2)cc1C | -0.29 | .
CN1C(=O)N(C)C(=O)C(CC(=O)N2CCCCC2)(CC(=O)N2CCCCC2)C1=O | . | -0.65
Cn1nc(C(=O)Nc2cccnc2)c2c1-c1ccccc1SC2 | -0.16 | -2.1
CC(C)COc1ccccc1OCC(C)C | -0.11 | -0.3
Cc1ccccc1OCc1nnc2c3cnn(Cc4ccccc4)c3ncn12 | 0.095 | -0.4
CCOC(=O)C1=C(N)OC2=C(C(=O)CC(c3ccccc3)C2)C1c1ccc(F)cc1 (configuration not stated) | -0.58 | .
CC1Cc2ccccc2N1S(=O)(=O)/C=C/c1ccccc1 (configuration not stated) | . | -0.95
CC(C)N1C(=O)C2ON(c3ccc(Cl)cc3)C(c3ccccc3)C2C1=O (configuration not stated) | -0.33 | -0.25
CC(=O)Nc1ccc(S(=O)(=O)N2CCCCC2)cc1 | 0.45 | -0.05
COc1ccc(C2=NN(C(=O)CN3CCCCC3)C(c3ccc(OC)cc3)C2)cc1 (configuration not stated) | . | -0.1
CCCC(C(=O)O)N1C(=O)/C(=C/c2ccc[nH]2)SC1=S (configuration not stated) | . | -0.7
Cc1cc(-c2onc(C)c2COC(=O)N2CCN(Cc3ccco3)CC2)no1 | 0.1 | .
O=C(O)CN=Cc1ccccc1O | -0.48 | 2.3
Nc1ccccc1N=Cc1c(O)n(-c2ccccc2)c(=S)n(-c2ccccc2)c1=O | -0.58 | .
O=C(O)C1=Cc2cc(Cl)ccc2OC1 | -0.66 | .
CCn1c2c(c(=O)[nH]c1=O)C(c1ccc(C)cc1)C1=C(CC(C)(C)CC1=O)N2 (configuration not stated) | . | -0.15
CS(=O)(=O)c1ccc(CN(C(=O)c2ccco2)C2CCN(Cc3ccccc3)CC2)cc1 | -0.69 | .
CSc1nnc(Cc2ccccc2)n1-c1ccc(C)cc1 | . | -0.6
Cc1noc2ncn(CC(=O)NC3CC3)c(=O)c12 | 0.53 | -0.9
CCOC(=O)c1cc2sccc2n1Cc1ccccc1 | . | -0.6
O=C(c1oc(=O)c2ccccc2c1-c1ccccc1)N1CCCN(Cc2ccc(F)cc2)C1 | 0.54 | -0.7
CCN(C(=O)Cn1c(=O)n(CC)c(=O)c2ccccc21)c1ccccc1 | . | 0.55
O=C(COC(=O)C1CC(=O)N(CCc2ccccc2)C1)c1ccc[nH]1 (configuration not stated) | . | 1.8
C=CC1(C)OCO/C1=C\C[N+](C)(C)C (configuration not stated) | -0.14 | -0.4
CC1=C(C(=O)OC(C)C)C(c2cn(-c3ccccc3)nc2-c2ccc(Cl)cc2)NC(=O)N1 (configuration not stated) | -0.06 | .
COc1ccc2[nH]cc(C(=O)CSc3nnc(-c4ccoc4)c(-c4ccoc4)n3)c2c1 | . | 1.2
Cc1cc(O)c(C(=O)Nc2ccc(Cl)c(Cl)c2)c(=O)n1C | . | 0.2
O=C(c1ccco1)N1CCN(c2c(Cl)cncc2Cl)CC1 | -0.4 | -0.6
Clc1ccc2oc(-c3ccccc3)cc(=NCc3ccco3)c2c1 | 2 | 0
O=c1onc(-c2cnccc2C(F)(F)F)n1-c1ccccc1Cl | 0.53 | 1.4
CCSc1nnc(C2CCCN(C(=O)C3CCC(OC)CC3)C2)n1C (configuration not stated) | . | -0.2
CC(=O)N/C(=C/c1ccccc1Br)C(=O)NC1CCCCCC1 | -0.67 | -0.8
CCOC(=O)Cn1c(=O)c(-c2cc(Br)ccc2N)nc2ccccc21 | 0.05 | .
O=c1c2cc(F)ccc2c(-c2ccc(F)cc2)nn1-c1ccc(F)cc1 | 0.75 | .
CC(Oc1ccc(Br)cc1)C(=O)NCc1ccncc1 (configuration not stated) | -0.025 | -0.85
FC(F)(F)c1ccc(-c2ncc(-c3ccc4ccccc4n3)c(-c3ccccc3)n2)cn1 | -0.95 | .
Cc1c(C(=O)O)oc2ccc(S(=O)(=O)N3CCC(C)CC3)cc12 | 0.15 | -0.05
CCCC(=O)Oc1ccccc1NS(=O)(=O)c1ccccc1 | . | -0.9
O=C(CSc1nc2ccccc2n1S(=O)(=O)c1ccccc1)NCCc1ccccc1 | -0.14 | .
N=C1Cc2ccccc2N1CC(=O)c1ccc(Br)cc1 | 0.15 | 0
COc1ccc(/C=C2\C=C(c3ccccc3)N(c3cc(C)ccc3C)C2=O)cc1Br | -0.59 | .
CC1=N/C(=C/c2cc(Br)cc(Br)c2O)C(=O)O1 | 0.38 | 0.05
CC(C)Sc1nnc(NC(=O)c2ccccc2C(F)(F)F)s1 | -0.36 | -0.65
Cc1[nH][nH]c(=O)c1C1(C(C#N)C#N)C2CC3CC(C2)CC1C3 (configuration not stated) | -0.025 | 1.7

# More structures follow:
canonical_smiles | Ba CapD inh | AID504770
COc1ccc(CCNC(N)=O)cc1OC | 0.5 | -0.25
CC(=O)N1CCN(S(=O)(=O)c2cccc(C(=O)NC(C)c3ccc(S(N)(=O)=O)cc3)c2)CC1 (configuration not stated) | . | -0.25
Cc1ccc(C2CC(=O)NC(SCC(=O)OC(C)C)=C2C#N)cc1 (configuration not stated) | 31 | -0.55
O=C(O)c1ccc(-n2cccc2)cc1O | 11 | -0.25
CC1CCCN(S(=O)(=O)c2ccc3[nH]c(=O)cc(C(=O)O)c3c2)C1 (configuration not stated) | 1.2 | -0.1
CC(C)N(C(=O)c1ccc2ccccc2c1)C(C)C | -0.17 | -1.3
CCN(CC)S(=O)(=O)c1ccc2nc(COC(=O)c3n[nH]c4ccccc34)[nH]c2c1 | . | 1.4
CC(=O)Nc1ccc(C)c(NC(=S)Nc2ccc(Cl)cc2C)c1 | 0.42 | .
Cc1ccc(N2C(=O)CSC2c2ccc(OC(F)F)cc2)cc1 (configuration not stated) | -0.63 | .
Cc1ncc([N+](=O)[O-])n1CCNC(=O)OCc1ccc(-c2ccccc2)cc1 | -0.39 | .
COc1ccc2[nH]c(C)c(CCN(Cc3cccs3)C(=S)NC3CCCCC3)c2c1 | -0.71 | 0.35
O=C1/C(=C\c2cc3c(cc2Cl)OCO3)N2CCC1CC2 | . | 0.1
O=C(O)/C=C1\OC(=O)c2ccccc21 | 0.17 | -0.35
CCC1CCCCN1C(=O)CSc1nc(C)cc(C)n1 (configuration not stated) | -0.36 | -1.2
COc1ccc(N2CCN(S(=O)(=O)c3ccc(F)c(C(=O)Nc4cc(C)ccc4OC)c3)CC2)cc1 | 1 | .
CC(=O)Nc1ccc(NC(=O)OCCc2ccccc2F)cc1 | -1.1 | .
CC(=O)OCN1C(=O)N(C)C2C1N(C)C(=O)N2COC(C)=O (configuration not stated) | 0.055 | -0.05
Cc1ccc(S(=O)(=O)N2CCN(Cc3ccc4ccccc4n3)CC2)cc1Cl | 0.98 | .
CS(=O)(=O)Nc1ccc(-c2csc(-c3ccccc3)n2)cc1 | . | -0.6
COc1cc(CCNC(=O)OCCc2cccc(F)c2)cc(OC)c1 | 0.48 | .
N#CCCn1c(=O)oc2cc(Br)ccc21 | -0.12 | -1.1
O=c1/c(=C/c2cccc(OCc3cccc4ccccc34)c2)sc2nc3ccccc3n12 | 0.12 | .
Cc1noc(C)c1C(=O)Nc1nnc(SCc2ccc(Cl)cc2)s1 | . | -0.8
Cc1cc(=O)oc2cc(OC(=O)c3cncc(Br)c3)ccc12 | . | 0.25
COC(=O)c1c(C)oc2ccc(N(C(C)=O)S(=O)(=O)c3ccc(Cl)c([N+](=O)[O-])c3)cc12 | -0.47 | .

# Next section; it opens with the 6 that closed the last part.
canonical_smiles | Ba CapD inh | AID504770
COc1cc(CCNC(=O)OCCc2cccc(F)c2)cc(OC)c1 | 0.48 | .
N#CCCn1c(=O)oc2cc(Br)ccc21 | -0.12 | -1.1
O=c1/c(=C/c2cccc(OCc3cccc4ccccc34)c2)sc2nc3ccccc3n12 | 0.12 | .
Cc1noc(C)c1C(=O)Nc1nnc(SCc2ccc(Cl)cc2)s1 | . | -0.8
Cc1cc(=O)oc2cc(OC(=O)c3cncc(Br)c3)ccc12 | . | 0.25
COC(=O)c1c(C)oc2ccc(N(C(C)=O)S(=O)(=O)c3ccc(Cl)c([N+](=O)[O-])c3)cc12 | -0.47 | .
Cc1nnc(SC2CCOC2=O)n1C1CCCCC1 (configuration not stated) | . | 0.1
NNC(=O)CC(=O)Nc1nc2ccccc2s1 | . | -0.3
NCc1cccc(C(F)(F)F)c1 | . | 0.8
CC(=O)OC1(c2ccccn2)COc2ccccc2O1 (configuration not stated) | -0.12 | -0.75
CSc1ncc(C(=O)NC2CCCCC2)c(C)n1 | -0.76 | -0.65
Cc1cc(C)n(CC(=O)N2CCc3ccccc32)c(=O)c1C#N | . | -0.75
O=C(CNS(=O)(=O)c1ccccc1Cl)Nc1ccc([N+](=O)[O-])cc1 | -1.4 | .
Cc1ccc(N2C(=O)c3cccnc3C2Nc2ccc(S(=O)(=O)N3CCOCC3)cc2)cc1 (configuration not stated) | -0.055 | -0.6
CC1CCCCN1C(=O)CSc1nnc(COc2ccc(Cl)cc2)o1 (configuration not stated) | -0.07&0.16 | -0.3&-0.95
COc1cccc(C2C(C#N)=C(N)Oc3n[nH]c(C)c32)c1OCc1ccc(Br)cc1 (configuration not stated) | -0.31 | .
Cc1ccccc1NS(=O)(=O)c1ccc(C(=O)NN2C(=O)NC3(CCCCC3)C2=O)cc1 | . | 0.45
O=C(NCc1ccc2c(c1)OCO2)c1cnn(-c2cccc(F)c2)c1-n1cccc1 | 0.48 | 1
CCCN(Cc1nnc(-c2ccccc2Cl)o1)C(=O)Cc1coc2cc(OC)ccc12 | . | -0.85
CCc1nc(N)ncc1-c1nnnn1-c1ccc(C)cc1 | 0.29 | 0
CSc1ncccc1C(N)=O | -0.34 | .
COc1ccc(OC)c(-n2c(CNC(=O)c3ccccc3OC)nnc2SCC(=O)N2CCc3ccccc32)c1 | -0.49 | .
CC1=C(C(=O)OCC(C)C)C(c2cc3c(cc2Br)OCO3)NC(=O)N1 (configuration not stated) | -0.21 | .
COCCNC(=O)c1cc(N(C)C)nc(N(C)C)n1 | 1.1 | .
CCc1ccccc1NC(=O)CC(NCc1ccccc1)C(=O)O (configuration not stated) | . | -0.1
Cc1ccc(C(=O)N2C(=O)C(c3ccccc3)Oc3ccccc32)cc1 (configuration not stated) | -0.46 | 0.25
COc1cc(OC)nc(C(c2ccccc2)N2CCNCC2)n1 (configuration not stated) | -0.22 | .
CS(=O)c1sc(C#N)c2c1C(=O)CC(C)(C)C2 (configuration not stated) | 1.6 | .
CCN=C(NCC)SC1CC(=O)N(CCc2ccccc2)C1=O (configuration not stated) | -0.15 | 0.2
COc1cccc(NC(=O)c2ccnc(N3CCC(C(=O)O)CC3)c2)c1 | -0.42 | -0.55
CC1CCN(C(=O)C2=NN(C3CCS(=O)(=O)C3)C(=O)CC2)CC1 (configuration not stated) | . | -0.55
CN(C1CCCCC1)S(=O)(=O)c1cc(Cl)ccc1Cl | -0.24 | -0.55
CCCOc1ccc(C(=O)N2CCCC2)cc1 | 2.9 | 0.05
CC(C)(C)c1ccc(C(=O)Nc2sccc2C(N)=O)cc1 | 4.3 | -1.2
COc1cc(NS(=O)(=O)c2ccc(NC(=O)c3cccnc3)cc2)ncn1 | 0.39 | -0.3
COCCCCOC(=O)NNC(=O)c1ccc(OC)cc1 | 0.26 | .
COCc1cc(N2CCCCC2)nc(-c2csc(C)n2)n1 | 2.5 | 0.35
C=CCNC(=S)N/N=C1\CCS(=O)(=O)c2ccccc21 | . | 0.9
CN(c1ncc(C(F)(F)F)cc1Cl)n1cc(C(N)=O)c2ccccc2c1=O | -0.5 | .
CCOc1ccc2c(c1)[nH]c(=S)n2C | 2 | 0.3
Cc1nc(SCC2=C(C(=O)OC(C)C)C(c3ccccc3I)C(C#N)=C(N)O2)c(C#N)c(C)c1C (configuration not stated) | 0.31 | .
O=C(O)CSC(=S)c1ccccc1 | -1.6 | 0.4
COc1c(C)cnc(CO)c1C | 0.52 | -0.6
CCOC(=O)N1CCN(C(=O)c2sc3ncnc(N4CCN(c5ccccn5)CC4)c3c2C)CC1 | -1.4 | .
CCc1ccc(NC(=O)C(C)OC(=O)c2cccnc2Cl)cc1 (configuration not stated) | 0.24 | -0.4
Cc1cnc(NC(=O)c2c(C)noc2C)s1 | . | 0.3
O=C1CN=C(c2ccccc2)c2cc(Br)ccc2N1 | -1 | .
C/C(=N\NC(=S)NCC1CCCO1)c1ccc(OCC(=O)N(C)C)cc1 (configuration not stated) | . | -0.15
COCCOC(=O)C1=C(N)OC2=C(C(=O)CC(C)(C)C2)C1c1ccccc1Cl (configuration not stated) | -0.035 | .

# Fetched by compound from the list above:
canonical_smiles | Ba CapD inh | AID504770
COc1c(C)cnc(CO)c1C | 0.52 | -0.6
COCCCCOC(=O)NNC(=O)c1ccc(OC)cc1 | 0.26 | .
COCCOC(=O)C1=C(N)OC2=C(C(=O)CC(C)(C)C2)C1c1ccccc1Cl (configuration not stated) | -0.035 | .
CN(c1ncc(C(F)(F)F)cc1Cl)n1cc(C(N)=O)c2ccccc2c1=O | -0.5 | .
CN(C1CCCCC1)S(=O)(=O)c1cc(Cl)ccc1Cl | -0.24 | -0.55
